TRPV1 PAM – human TRPV1 potentiation; potentiation, % at 8.33 µM; 320,000 tested, 0.02% active; TRPV1-expressing cells, Fluo-8 calcium influx, capsaicin EC20 potentiation; host cell line not named in the record; control for the full effect not named in the record; Q8NER1; AID 540277; active means potentiation above 80%; inconclusive means 30% to 80%; inactive means below 30%; note: 0% is about no effect
Target sequence (Q8NER1 whole entry, looked up): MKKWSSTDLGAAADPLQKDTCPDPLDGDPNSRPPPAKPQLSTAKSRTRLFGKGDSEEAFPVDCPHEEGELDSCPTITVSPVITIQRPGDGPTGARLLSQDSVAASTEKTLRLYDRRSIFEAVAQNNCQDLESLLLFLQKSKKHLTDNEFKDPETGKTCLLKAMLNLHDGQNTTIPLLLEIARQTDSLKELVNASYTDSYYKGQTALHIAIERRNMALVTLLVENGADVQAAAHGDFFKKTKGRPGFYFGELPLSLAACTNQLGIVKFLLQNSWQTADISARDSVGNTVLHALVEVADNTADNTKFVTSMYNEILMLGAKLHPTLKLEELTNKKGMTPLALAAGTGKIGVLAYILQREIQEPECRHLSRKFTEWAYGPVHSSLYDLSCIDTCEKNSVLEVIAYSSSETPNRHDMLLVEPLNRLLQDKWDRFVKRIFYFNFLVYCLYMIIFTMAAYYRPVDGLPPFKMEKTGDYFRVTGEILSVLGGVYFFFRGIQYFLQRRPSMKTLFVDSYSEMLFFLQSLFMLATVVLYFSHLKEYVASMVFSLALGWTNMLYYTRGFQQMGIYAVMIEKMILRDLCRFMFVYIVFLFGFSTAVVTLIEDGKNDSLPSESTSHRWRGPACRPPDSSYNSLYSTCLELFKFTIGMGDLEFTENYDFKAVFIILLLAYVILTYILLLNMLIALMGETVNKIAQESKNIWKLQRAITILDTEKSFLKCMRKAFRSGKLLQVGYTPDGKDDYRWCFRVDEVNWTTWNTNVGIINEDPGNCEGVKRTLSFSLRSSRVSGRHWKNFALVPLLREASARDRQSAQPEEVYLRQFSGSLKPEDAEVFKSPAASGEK
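Fluo-8 calcium influx in TRPV1-expressing cells, kinetic read (ex 480/em 520 nm). Compound added and read 3 min for agonist activity, followed by capsaicin at EC20 final and 2 min further read for enhancement.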
TRPML1 blocker – blocks the human TRPML1 channel. Q9GZU1. TRPML1-inducible cells, Ca2+ dye fluorescence, FDSS; active compounds read low; inhibition of EC80 agonist-evoked calcium signal. activity change, negative = inhibition, % (no concentration beside the values). 390,000 tested, 0.02% active. AID 624415; in the data active means activity change below about -50%; inconclusive means about -30% to -50%; inactive means above about -30%;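 note: stimulus is agonist 54-4 at its EC80 concentration; % is set by controls: 0 for no effect and ±100 for the full control effect; compound concentration not given in the record; the text of the record puts the active cut at -80%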
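Tet-induced TRPML1-DL cells loaded with Ca8 no-wash calcium dye were read kinetically on FDSS. Compound addition was followed by EC80 agonist 54-4 (4 uM final); inhibition was read over 110 s.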
gsp antagonist – antagonizes gsp, the McCune-Albright syndrome mutation; gsp-mutant cells, cAMP HTRF, 30 min; control for the full effect not named in the record; AID 624288; Potency, µM (series often up to 76.9 µM), without a hit: at the top dose activity change, negative = inhibition, usual class: inhibitors; 340,000 tested, 0.4% active; active = falling curve of any shape with a large fitted effect; inconclusive = falling curve, mostly with a smaller effect; inactive = flat or rising curve; cell line not stated here;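 note: intracellular cAMP measured with PDE inhibitor Ro 20-1724 present during compound exposure; potency is the fitted concentration of half-maximal effect; % is set by controls: 0 for no effect and ±100 for the full control effect; nearly all actives have a fitted effect of over 65% in size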
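Cells, 2000/well, grown 16–24 h in DMEM 10% FBS with 0.5 mg/ml G418, then compounds plus […] (300 uM addition stock), 30 min at 37C. cAMP read by HTRF (cAMP-d2 and anti-cAMP antibody-K in lysis buffer) after 30 min RT.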
Sfp PPTase inh – blocks B. subtilis Sfp PPTase activity. Potency, µM, for the others: max response, negative = inhibition, most hits filed as inhibitors. 310,000 tested, 3.5% active. Biochemical Sfp PPTase activity, qHTS; active = well fitted inhibition curve with a large enough effect; inconclusive = small, poorly fitted or top-dose-only effect, or another doubt; inactive = no such curve, though single readings can be large or run the other way;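 note: the enzyme is Sfp with the accession as filed and its product quenches rhodamine fluorescence; potency is the fitted concentration of half-maximal effect; 0% = enzyme reaction without inhibitor and -100% = no enzyme wells; top concentration of the series not given in the record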
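Fluorescence-quenching assay: 15 nM Sfp-PPTase preincubated 15 min at room temperature with compound, then 5 uM rhodamine-CoA and 12.5 uM BHQ-2-labelled YbbR peptide added. Fluorescence (ex 525/em 598 nm) read at start and after 30 min; difference gives rate.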
gsp agonist – agonists of gsp mutant (McCune-Albright syndrome); Potency, µM (highest dose often 76.9 µM), without a hit: top-dose activation (cAMP increase), hits mostly activators; gsp mutant cells, cAMP HTRF, 30 min; control for the full effect not named in the record; 340,000 tested, 0.13% active; active = well fitted activation curve with a large enough effect; inconclusive = small, poorly fitted or top-dose-only effect, or another doubt; inactive = no such curve, though single readings can be large or run the other way; cell line not stated here;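 note: phosphodiesterase inhibitor Ro 20-1724 added with compounds to block cAMP breakdown; potency is the fitted concentration of half-maximal effect; nearly all actives have a fitted effect of over 60% in size; about a fifth of the inactives were tested at one dose only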
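Cells in DMEM/10% FBS with G418 were pretreated with compounds in DMSO plus […] (300 uM stock) for 30 min at 37C. cAMP was measured by HTRF (cAMP-d2 plus anti-cAMP antibody-K) after 30 min at room temperature.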
Menin-MLL FL inh – menin-MLL binding inhibition, fluorescein peptide | Fluorescence polarization, fluorescein-MLL peptide displacement from menin | FP activity change, % at 61.4 µM | 290,000 tested, under 10 active | AID 1766; inconclusive = falling polarisation curve, or a change in total fluorescence; inactive = total fluorescence flat and polarisation flat or rising; no compound was filed as active; the % refers to the polarisation; negative = inhibition;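 note: % of control where 0% means no effect; inhibitors lower the polarisation; unlabelled MLL peptide was the positive control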
ClpP mod – qHTS Assay for Activators of ClpP. 340,000 tested, 1.9% active. ATP-dependent Clp protease proteolytic subunit (Bacillus subtilis (strain 168)), P80244. AID 651965, 2013. purified B. subtilis ClpP, FRET peptide cleavage, 20 min. Potency, µM (titrated, usually from 57.5 µM), inactives show at the top dose activity change, negative = active; active = well fitted falling curve with a large enough effect; inconclusive = small, poorly fitted or top-dose-only effect; inactive = no such curve, though single readings can be large or run the other way; note: potency is the fitted concentration of half-maximal effect; the source files actives as falling curves though it sought activators and does not explain the sign; nearly all actives have a fitted effect of over 65% in size; many hits overshoot -100%
Target sequence (P80244 whole entry, looked up): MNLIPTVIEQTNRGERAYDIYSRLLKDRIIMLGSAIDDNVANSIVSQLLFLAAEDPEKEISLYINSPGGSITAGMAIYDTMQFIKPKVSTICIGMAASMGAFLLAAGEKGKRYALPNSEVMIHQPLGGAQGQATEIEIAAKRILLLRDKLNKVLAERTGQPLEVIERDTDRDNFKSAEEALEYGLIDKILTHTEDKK
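Buffer: 100 mM Tris/HCl pH8, 100 mM KCl, 0.05% low protease BSA, 2.5% glycerol, 0.01% Tween-20. ClpP 10 microg/mL final; 20 min RT; delta FRET normalized to ADEP and DMSO controls.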
The depositor's hits bear a star; ? = inconclusive; · = no result given; [ ] = dose if it differs, or a comment.

Values run as follows: gsp agonist	TRPML1 blocker	gsp antagonist	Sfp PPTase inh	Menin-MLL FL inh	ClpP mod	TRPV1 PAM
COc1ccc(OCC(=O)N(Cc2ccco2)C2CCS(=O)(=O)C2)cc1 (stereo not given)
    -3%	-13	-3%	8%	3.1	·	-1
COc1ccc(N2CC(C(=O)Nc3nnc(SCC(=O)NCc4ccco4)s3)CC2=O)cc1 (stereo not given)
    -2%[15.4 µM]	-2	-2%	50µM*	·	-0.9%	4
O=C(CNC(=O)C(c1ccccc1)c1ccccc1)N/N=C\c1ccc(C(=O)O)cc1
    -40%[inhibitor]	36	9%	9%	-5.5	-1.4%	4
COc1ccc(NC(=O)CN(C)CC(=O)NC2CCC(C)CC2)cc1 (stereo not given)
    9%	3	4%	·	·	1.1%	4
COc1ccc([C@@H]2[C@@H]3C(=O)N(C(C)(C)C)C(=O)[C@@H]3[C@]3(C)C(=O)N(c4cccc(Br)c4)C(=O)N23)cc1
    2%	1	-12%	16%	-7.0	-1.3%	-21
COc1ccc2nc(Cl)c(C3CC(c4ccco4)=NN3C(=O)CCC(=O)O)cc2c1 (stereo not given)
    ?	-4	-2%	-11%	2.8	-7.4%	-12
O=C(N/N=C/C=C\c1ccccc1[N+](=O)[O-])c1cccnc1
    -11%[15.4 µM]	11	-4%	13%	0.6	1.1%	-4
CC(C)N(C(=O)CSc1nc2c([nH]1)c(=O)n(C)c(=O)n2C)c1ccccc1
    ?	-2	7%	-26%	1.3	-16%	16
CC(C)CNC(=S)NNC(=O)c1ccc2c(c1)OCO2
    -7%	-8	13%	17%	4.5	6.3%	22
Cc1ccc(S(=O)(=O)N2CCN(C(=O)COC(=O)c3ccccn3)CC2)c(C)c1
    18%	31	3%	·	·	-7.8%	9
COc1ccc(CCN2C(=O)CC(Cc3ccccc3)C2=O)cc1OC (stereo not given)
    -18%	7	7%	8%	-0.6	-0.1%	-1
CCCN(CC(=O)c1cc(C)n(C)c1C)S(=O)(=O)c1cccc(C(F)(F)F)c1
    -30%	12	-15%	-6%	-0.5	7.6%	-12
Cc1nc2ccccc2nc1OCc1cccc([N+](=O)[O-])c1
    31%	12	0%	7%	-5.6	·	22
CCOC(=O)C1CCN(C(=O)CNC(=O)c2nn(-c3ccc(OC)cc3OC)c(=O)c3ccccc23)CC1
    27%	9	-12%	6%	-1.0	·	8
Cc1ccc(-c2nc3ncccc3o2)cc1NC(=O)c1sc2ccccc2c1Cl
    6%	5	6%	30%	-0.9	-24%	6
Cc1nn2c(-c3ccccn3)ccnc2c1Br
    ?	14	-38%	15%	-1.3	3.4%	-1
COc1ccc(S(=O)(=O)Nc2ccc3c(c2)C(=O)N([C@H](C)CO)C[C@H](C)[C@@H](CN(C)C(=O)Nc2ccc(C(F)(F)F)cc2)O3)cc1
    ·	-2	-11%	·	·	1.5%	·
Cc1ccccc1NC(=O)CCN1CCc2ccccc2C1
    1%[15.4 µM]	20	3%	?	4.4	0.5%	10
COc1ccc(OCC(O)CNC(=O)c2cccs2)cc1 (stereo not given)
    -1%[15.4 µM]	-18	10%	6%	2.8	0.0%	-10
CC1CCCC(NC(=O)c2ccc(COc3ccccc3)o2)C1C (stereo not given)
    -1%	10	?	-2%	1.6	-0.1%	8

Other compounds follow:
Values run as follows: gsp agonist	TRPML1 blocker	gsp antagonist	Sfp PPTase inh	Menin-MLL FL inh	ClpP mod	TRPV1 PAM
Fc1ccc(OCCCCCCN2CCCC2)cc1
    -40%[inhibitor]	3	-1%	22%	1.1	-1.2%	-1
CC(=O)Nc1ccc(S(=O)(=O)NC(C)C(=O)NCC(c2ccco2)N(C)C)cc1 (stereo not given)
    -26%	-16	10%	·	·	-20%	-7
CCN(CC(=O)Nc1ccc(OC)cc1)C(=O)c1ccc(=O)n(Cc2ccccc2)n1
    0%	-9	8%	·	·	0.5%	-1
O=C(O)c1cccc2c1C(=O)c1ccc(N3CCCCC3)cc1S2(=O)=O
    1%	-13	2%	·	·	-1.3%	2
CCCN(C#N)c1nc(NCC)nc(NC(C)C)n1
    3%	2	9%	13%	2.7	-1.4%	-7
Cn1c2ccccc2c(=O)c2cc(C#Cc3cccc(N)c3)ccc21
    ·	-14	5%	·	·	-21%	-4
CN(C)Cc1ccc(CNC(=O)COc2ccc3ccccc3c2)cc1
    -12%[15.4 µM]	10	7%	13%	-0.8	·	8
COc1cc(/C=C/C(=O)O)cc(S(=O)(=O)N(C)CCO)c1OC
    -8%	2	13%	13%	3.1	-16%	-3
CSc1ccccc1NC(=O)CN(C)S(=O)(=O)c1ccc(F)cc1
    -2%	1	-13%	4%	-1.4	0.4%	-2
Cc1cc(/C=N\O)c(C)n1-c1ccncc1
    2%	4	4%	6%	-0.8	-0.2%	?
O=C1CC(Sc2ccc(Cl)cc2)C(=O)N1c1ccc2c(c1)OCCO2 (stereo not given)
    -1%[15.4 µM]	-4	-4%	9%	4.8	·	-19
Cc1cccc(NC(=O)c2ccccc2C(=O)O)c1
    -3%	-12	7%	12%	-3.0	-1.1%	10
CC1CCCCN1C(=O)CSc1nnc(-c2cccs2)o1 (stereo not given)
    -8%[15.4 µM]	10	5%	6%	·	·	-17
CCOC(=O)C1=C(C)NC2=C(C(=O)CCC2)C1c1ccc(N(C)C)cc1 (stereo not given)
    -20%	8	-3%	18%	5.2	-4.0%	7
CN(C)CCNC(=O)c1onc(CSc2nc3ccccc3[nH]2)c1C(=O)NCCN(C)C
    ·	11	6%	-14%	-9.1	0.7%	27
COc1ccccc1N1CCN(S(=O)(=O)c2cccc(F)c2)CC1
    -6%	0	-4%	-6%	-0.9	4.6%	-17
CC(C)(C)c1ccc(OCC(=O)N2CCN(C=O)CC2)cc1
    -28%	-6	8%	14%	2.9	-0.5%	-20
Cn1c2ccccc2c2nnc(SCN3C(=O)c4ccccc4C3=O)nc21
    ·	·	·	6%	-0.8	·	27
Cc1c(C(=O)N(C)CCOc2ccccc2)oc2c(Cl)cccc12
    11%	13	-23%	·	·	2.1%	-10
Cc1ccc(CS(=O)(=O)CCC(=O)NCC2CCCO2)cc1 (stereo not given)
    -36%[inhibitor]	-6	1%	-1%	5.1	0.8%	-2

Continued.
Values run as follows: gsp agonist	TRPML1 blocker	gsp antagonist	Sfp PPTase inh	Menin-MLL FL inh	ClpP mod	TRPV1 PAM
CCOCc1nnc(NC(=O)CSc2ccccc2)s1
    0%	-6	12%	13%	1.8	3.2%	8
CCOC(=O)N1CCN(C(=O)c2ccc3c(=O)n(CCC4=CCCCC4)c(=O)[nH]c3c2)CC1
    -40%[inhibitor]	-12	-6%	-5%	-1.0	-5.5%	-1
NC(=O)C1CCN(C(=O)NC2CC(=O)N(c3ccc4c(c3)OCCO4)C2)CC1 (stereo not given)
    6%[15.4 µM]	-6	8%	·	·	-0.3%	-26
Cc1cc(NC(=O)CCC(=O)N(C2CC2)C2(C(=O)NC3CCCC3)CCC(C)CC2)no1 (stereo not given)
    18%	4	2%	-2%	-0.8	-2.2%	3
Cc1ccccc1NS(=O)(=O)c1c(C(=O)N2CCCCCC2)c(C)n(C)c1C
    ?	12	0%	12%	1.9	0.2%	-2
CC1=C(C)CC(C(=O)N2CCN(Cc3ccc4c(c3)OCO4)CC2)C(C(=O)O)C1 (stereo not given)
    -17%	-7	3%	22%	-0.8	·	-2
OCCN(CCO)c1ccc2ccccc2c1
    ?	1	-8%	-29%	-4.8	3.9%	-1
O=S(=O)(c1cccc(-c2n[nH]c(=S)n2Cc2ccccc2)c1)N1CCOCC1
    ?	3	-20%	-26%	-1.0	-1.5%	-7
CN(C)C(=O)c1ccc(COc2ccccc2Br)o1
    -38%	50	0%	-5%	2.1	1.0%	-29
CCOC(=O)CNC(=O)CSc1nc(C)cc(C)c1C#N
    -32%[inhibitor]	2	-12%	-2%	-0.3	-2.6%	·
Cc1cc(C(=O)OC(C(=O)Nc2ccc(C)c(Cl)c2)c2ccccc2)c(C)o1 (stereo not given)
    6%	-16	-9%	16%	-1.9	-2.4%	-16
O=c1cc(-c2ccccc2)nc2nc(-c3ccco3)[nH]n12
    -21%	-2	-5%	-22%	3.5	-17%	-3
O=C(c1ccccc1)N1CCCCC(Sc2nnnn2-c2ccccc2)C1=O (stereo not given)
    -36%[inhibitor]	-3	1%	0%	1.1	-2.1%	1
CCC(C)n1c(=N)c(C#N)cc2c(=O)n3cccc(C)c3nc21 (stereo not given)
    3%[15.4 µM]	-6	-1%	12%	-2.1	·	14
CCn1nc(C(=O)Nc2cccc3ccccc23)c(Cl)c1Cl
    -8%	6	1%	-5%	2.6	-1.4%	18
Cc1c(Cl)cccc1-n1cnc(=O)c2ccccc21
    0%[15.4 µM]	4	16%	·	·	0.7%	·
COCCCN(C(=O)CSCC(=O)Nc1ccc(C)cc1)c1c(N)n(Cc2ccccc2)c(=O)[nH]c1=O
    27%	-9	-5%	·	·	-7.0%	·
COc1ccc(NC(=O)[C@H](Cc2c[nH]c3ccccc23)NC(=O)[C@@H]2Cc3ccccc3CN2)cc1
    ·	·	2%	4%	1.3	-1.6%	-9
O=C1C(c2ccccc2)C2C=CC(C2)N1O (stereo not given)
    -2%	-12	0%	·	·	-4.0%	·
O=C(CNS(=O)(=O)c1ccccc1)OCC(=O)c1ccc([N+](=O)[O-])cc1
    -10%	-6	-7%	79µM*	-0.1	-1.3%	13
COc1ccc(NC(=O)C2CCN(c3ncnc4c3nc3n4CCCCC3)CC2)cc1Cl
    -32%[inhibitor]	14	-23%	-6%	-7.1	1.8%	-27

Compound activity: PubChem BioAssay, National Center for Advancing Translational Sciences (NCATS)
